NS1 inh – influenza NS1 inhibition; Potency, µM (series often up to 46.1 µM), for the others: at the highest dose activity, positive = more growth; S. cerevisiae slowed by influenza A NS1, growth recovery by OD600; 270,000 tested, 0.4% active; AID 2326; further: actives are rising curves; nearly all actives have a fitted effect of over 50% in size
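A cell-based growth assay was used: compounds that relieve NS1-induced slow growth of budding yeast raise OD600. Assay medium was yeast nitrogen base with ammonium sulphate and -URA supplement, pH 6.0, with 2% galactose.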
MARV entry inh – Marburg virus entry inhibition. Marburg virus pseudotyped entry inhibition, cell reporter; control for the full effect not named in the record; about a third of the inactives were read at about 46 µM. 300,000 tested, 1.8% active. AID 540276. Potency, µM (highest dose often 37.8 µM), without a hit: at the highest dose activity change, negative = inhibition, most hits filed as inhibitors; active = well fitted inhibition curve with a large enough effect; inconclusive = small, poorly fitted or top-dose-only effect, or effect the other way; inactive = flat fitted curve, though single readings scatter; tested in HEK293 cells; about a fifth of its hits are not listed in these tables; further: on the % scale 0 is the no-effect control and ±100 the full control effect; luciferase read-out
LASV entry inh – Lassa virus entry inhibition | AID 540256 | Potency, µM (doses to about 37.9 µM), for inactives: at the top dose activity change, negative = inhibition, most hits filed as inhibitors | Lassa virus pseudotype entry inhibition, cell reporter; control for the full effect not named in the record | 300,000 tested, 1.2% active; active means well fitted inhibition curve with a large enough effect; inconclusive means small, poorly fitted or top-dose-only effect, or effect the other way; inactive means flat fitted curve, though single readings scatter; tested in HEK293 cells; further: on the % scale 0 is the no-effect control and ±100 the full control effect; nearly all actives have a fitted effect of over 50% in size; luciferase read-out
SARS PLpro yeast – blocks SARS-CoV papain-like protease in a yeast assay; S. cerevisiae expressing SARS-CoV PLpro, growth rescue; control for the full effect not named in the record; Potency, µM (highest dose often 32.9 µM), for the others: at the highest dose activity, positive = growth rescue; 330,000 tested, 0.19% active; AID 485353; further: 0% is about no effect; nearly all actives have a fitted effect of over 55% in size; growth read by luminescence after 48 h
Cruzain Triton – blocks cruzain activity in presence of Triton detergent. P25779. purified cruzain, Z-FR-AMC fluorescence, 0.01% Triton. Potency, µM, inactives show max response, negative = inhibition, most hits filed as inhibitors. 200,000 tested, 0.43% active. AID 1478; active means well fitted curve in the direction sought with a large enough effect; inconclusive means small, poorly fitted or top-dose-only effect, or another doubt; inactive means no such curve, though single readings can be large; an effect the other way counts as inactive or inconclusive;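 further: plate controls were neutral wells for no effect and buffer without enzyme for full effect; nearly all actives have a fitted effect of over 40% in size; top concentration of the series not given in the record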
Target sequence (P25779 123-467 limits assumed): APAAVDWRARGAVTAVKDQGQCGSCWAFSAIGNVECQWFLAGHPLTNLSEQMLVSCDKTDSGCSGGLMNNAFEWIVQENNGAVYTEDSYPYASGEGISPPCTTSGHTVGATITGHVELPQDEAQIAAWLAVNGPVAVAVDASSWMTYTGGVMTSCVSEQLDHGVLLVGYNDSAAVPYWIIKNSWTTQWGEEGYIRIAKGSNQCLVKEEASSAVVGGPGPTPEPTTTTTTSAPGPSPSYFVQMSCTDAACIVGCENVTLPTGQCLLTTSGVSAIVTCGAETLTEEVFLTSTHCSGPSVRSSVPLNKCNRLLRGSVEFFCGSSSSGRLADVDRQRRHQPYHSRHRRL
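Cruzain (1.5 nM) preincubated 15 min at RT with compound in 100 mM sodium acetate pH 5.5, 5 mM DTT, 0.01% Triton X-100. Reaction started with 2 uM Z-FR-AMC; AMC fluorescence (ex 360/em 450 nm) change over 60 s gave rate.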
Cruzain noTriton – blocks cruzain activity in detergent-free assay; purified cruzain, Z-FR-AMC fluorescence, no detergent; AID 1476; 200,000 tested, 2.3% active; Potency, µM, for the others: max response, negative = inhibition, actives largely listed as inhibitors; P25779; active means well fitted curve in the direction sought with a large enough effect; inconclusive means small, poorly fitted or top-dose-only effect, or another doubt; inactive means no such curve, though single readings can be large; an effect the other way counts as inactive or inconclusive;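 further: plate controls were enzyme without inhibitor for no effect and buffer without enzyme for full effect; nearly all actives have a fitted effect of over 40% in size; top concentration of the series not given in the record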
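Purified cruzain at 1.5 nM, pre-incubated 15 min with compound at room temperature in 100 mM sodium acetate pH 5.5, 5 mM DTT, 0.00005% Triton X-100. Reaction started with 2 uM Z-FR-AMC; AMC fluorescence increase over 60 s gives rate.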
RE007 growth inh – less growth of the S. pombe RE007 Vpr strain; S. pombe RE007 Vpr strain, BacTiter-Glo ATP luminescence, 24 h; control for the full effect not named in the record; Potency, µM (doses to about 92.2 µM), inactives show at the highest dose activity change, negative = less growth; 360,000 tested, 0.21% active; AID 651644; active = well fitted falling curve with a large enough effect; inconclusive = small, poorly fitted or top-dose-only effect; inactive = no such curve, though single readings can be large or run the other way;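 further: on the % scale 0 is the no-effect control and ±100 the full control effect; nearly all actives have a fitted effect of over 50% in size; the assay follows cell death caused by Vpr and the record does not say whether a fall means rescue or toxicity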
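Fission yeast strain RE007, carrying one chromosomally integrated HIV-1 vpr copy, was seeded at OD 0.01 in PMG+AL medium with 23 nL pinned compound. After 24 h at 30 °C and 99% humidity, viability was read by BacTiter-Glo luminescence.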
StopGo reporter – FMDV 2A StopGo reporter, luciferase signal | human cells with a luciferase reporter of 2A StopGo recoding; control for the full effect not named in the record | 410,000 tested, 1.2% active | Potency, µM (series often up to 57.9 µM), inactives show at the top dose signal change, negative = less light; active = well fitted falling curve with a large enough effect; inconclusive = small, poorly fitted or top-dose-only effect; inactive = no such curve, though single readings can be large or run the other way; tested in HEK293T cells; further: on the % scale 0 is the no-effect control and ±100 the full control effect; nearly all actives have a fitted effect of over 45% in size; luciferase light after 4 h
* marks the source's active call; other numbers are inactive results; ? = inconclusive; / = not tested or not shown; [ ] = remark or other dose. Unless noted, the call rests on the fitted dose curve; in most records, active means well fitted rising curve with a large enough effect; inconclusive means small, poorly fitted or top-dose-only effect; inactive means no such curve, though single readings can be large or run the other way. Potency means the concentration at half of the fitted maximal effect. Not a hit list, and some 4.5% of all compounds hit somewhere here.

1	CCOC(=O)C1CCN(S(=O)(=O)c2cn(C)cn2)CC1
2	Cc1ccc(S(=O)(=O)N2C=CC(C(F)(F)F)=NCC2)cc1
3	O=C(O)c1ccccc1SC1CC(=O)N(c2ccc3c(c2)OCO3)C1=O (stereo not drawn)
4	O=C(O)C1CCN(C(=O)OCc2ccccc2)CC1
5	CC1CCN(S(=O)(=O)c2ccc3nc(NCc4ccc(N(C)C)cc4)ccc3c2)CC1
6	Cc1ccc(-c2ccc(/C=N/N3C(=O)C4C5C=CC(CC5)C4C3=O)o2)c([N+](=O)[O-])c1 (stereo not drawn)
7	O=C(c1cnn2c(C(F)(F)F)cc(-c3ccccc3)nc12)N1CCOCC1
8	CCc1nc(C)cn1S(=O)(=O)c1ccc(Cl)c(Cl)c1Cl
assay / compound	1	2	3	4	5	6	7	8
NS1 inh	0%	-7%	/	0%	/	-4%	5%	-88%
MARV entry inh	1%[46.1 µM]	5%	?	?	/	14%	0%	?
LASV entry inh	10%[46.1 µM]	16%	1%[46.1 µM]	?	-16%[46.1 µM]	3%	-21%	-22%
SARS PLpro yeast	16%	-6%	-20%	5%	/	3%	-6%	-9%
Cruzain Triton	/	-0.7%	/	-1.6%	-6.1%	-2.5%	0.1%	2.4%
Cruzain noTriton	/	-1%	/	7%	11%	?	2%	-8%
RE007 growth inh	-9%	-19%	22µM*	-2%	/	-11%	4%	-22%
StopGo reporter	10%	0%	1%	59%[activator]	13%	/	/	?

9	Cc1ccc(C(=O)Oc2c(S(=O)(=O)c3ccccc3)c(C)nn2-c2ccccc2)cc1
10	CCOc1ccc2c(c1)C(c1ccc(C)o1)=NNC(c1ccncc1)=N2
11	CCOC(=O)Cn1c(S(=O)(=O)Cc2cccc(F)c2)nc(-c2ccccc2)c1-c1ccccc1
12	Cc1cc(C(=O)NC2CCCc3c2cnn3-c2ccc(C(C)(C)C)cc2)n[nH]1 (stereo not drawn)
13	Cc1c(CNCC(C)c2ccccc2)c(C(=O)O)c(C)n1Cc1ccccc1 (stereo not drawn)
14	CC1CN(C(=O)N2CCC(C(=O)NCCCc3ccccc3)CC2)c2ccccc2O1 (stereo not drawn)
15	COc1ccc(CN2CN(S(=O)(=O)c3ccccc3)c3nc4ccccc4nc32)cc1
16	CCCNC(=O)c1oc2ccc3c(c2c1C)C(=O)CC(C)(C)O3
assay / compound	9	10	11	12	13	14	15	16
NS1 inh	/	/	?	-2%	/	/	-6%	-58%
MARV entry inh	1%[46.1 µM]	?	2.6µM*	/	-1%[46.1 µM]	/	-4%	?
LASV entry inh	-4%[46.1 µM]	?	7.3µM*	/	-6%[46.1 µM]	12%[46.1 µM]	0%	-20%
SARS PLpro yeast	/	-6%	-7%	2%	3%	/	0%	-8%
Cruzain Triton	1.2%	/	-3.7%	/	/	-3.1%	/	-12%
Cruzain noTriton	-2%	/	-5%	/	/	0%	/	-2%
RE007 growth inh	/	3%	15%	6%	-10%	/	16%	1%
StopGo reporter	0%	-6%	-15%	?	-4%	-3%	54%[activator]	2%

17	CCOc1ccc(OCCC(=O)NNC(=O)c2cc(OC)c(OC)c(OC)c2)cc1
18	Cc1ccc(N2CCN(C(=O)C3CCN(S(=O)(=O)c4ccc5c(c4)oc(=O)n5C)CC3)CC2C)cc1 (stereo not drawn)
19	CCOC(=O)C(=CNc1ccc2c(c1)CCN2C(C)=O)C(=O)OCC
20	COc1ccc(N2CCN(C(=O)COC(=O)COc3ccc(C#N)cc3)CC2)cc1
21	O=C1NC(c2cccnc2)Nc2sc3c(c21)CCCC3 (stereo not drawn)
22	COCc1nnc(NS(=O)(=O)c2ccc(NC(C)=O)cc2)s1
23	CCCn1nc(C(=O)Nc2ccc3nc(C)sc3c2)c2ccccc2c1=O
24	CN(CC(=O)Nc1ccc(Cl)c(C(F)(F)F)c1)C(=O)CCc1nc2ccccc2c(=O)[nH]1
assay / compound	17	18	19	20	21	22	23	24
NS1 inh	/	/	0%	/	11%	-17%	-21%	/
MARV entry inh	-5%	12%[46.1 µM]	/	21%	?	-6%	-1%	2%
LASV entry inh	9%	7%[46.1 µM]	/	11%	21%	15%	13%	-9%
SARS PLpro yeast	3%	/	-1%	-1%	-29%	-3%	-29%	-7%
Cruzain Triton	/	1.4%	/	/	-13%	-1.7%	-4.0%	/
Cruzain noTriton	/	7%	/	/	0%	2%	?	/
RE007 growth inh	7%	/	5%	-24%	-13%	-16%	0%	-9%
StopGo reporter	-6%	?	32%[activator]	-7%	37%[activator]	-9%	11%	-8%

25	Cc1ccccc1OC(C)C(=O)Nc1ccc(S(=O)(=O)Nc2nccs2)cc1 (stereo not drawn)
26	CC(C)OCCCNC(=O)[C@H]1N2C(=O)c3ccccc3C2SC1(C)C (stereo partly drawn)
27	Cc1ccccc1NC(=O)C1CCCN1S(=O)(=O)c1cccc2cccnc12 (stereo not drawn)
28	CN1CCC(=NOc2ccc([N+](=O)[O-])cc2)CC1
29	COc1cccc(N2CCN(c3cnc4ccccc4n3)CC2)c1
30	Cn1c(N)c(C(=O)COC(=O)c2ccc(Br)o2)c(=O)n(C)c1=O
31	CCOCCCn1c(SCC(=O)Nc2ccccc2OC)nc2ccccc2c1=O
32	Cc1cccc(NC(=S)NC2CCCCC2)n1
assay / compound	25	26	27	28	29	30	31	32
NS1 inh	-12%	4%	-9%	4%	/	4%	-15%	-6%
MARV entry inh	-1%[46.1 µM]	3%	/	-2%[46.1 µM]	?	0%	/	0%[46.1 µM]
LASV entry inh	?	?	/	-8%	21%	15%	/	7%
SARS PLpro yeast	-3%	1%	-3%	-2%	-3%	-9%	0%	1%
Cruzain Triton	/	/	3.4%	/	/	2.5%	/	/
Cruzain noTriton	/	/	8%	/	/	4%	/	/
RE007 growth inh	-4%	13%	-3%	-18%	-16%	-2%	-8%	-6%
StopGo reporter	22%	3%	-18%	38%[activator]	2%	-10%	?	-2%

33	CCCCCCOC(=O)Nc1ccc(S(=O)(=O)Nc2cccc([N+](=O)[O-])c2)cc1
34	Cc1cc(=O)oc2cc3c(cc12)OCO3
35	CCc1ccc(CNC(=O)C2COc3ccccc3C2)cc1 (stereo not drawn)
36	CC(C)(C)C(=O)N1CCN(S(=O)(=O)c2ccc3c(c2)OCCCO3)CC1
37	CS(=O)(=O)c1nc(-c2cccs2)cc(C(F)(F)F)n1
38	Oc1[nH]c2ccccc2c1N=Nc1ccccc1Cl
39	O=C(c1ccccc1)N1N=C(C(F)(F)F)CC1(O)c1ccccc1O (stereo not drawn)
40	CCCOc1ccc(Oc2ccc(S(=O)(=O)N3CCN(C)CC3)cn2)cc1
assay / compound	33	34	35	36	37	38	39	40
NS1 inh	8%	5%	/	/	-84%	/	-37%	/
MARV entry inh	-13%	/	/	?	0%	-2%	/	-12%
LASV entry inh	-12%	/	9%[46.1 µM]	-8%	/	2%	/	?
SARS PLpro yeast	7%	0%	/	-1%	-34%	/	-11%	-2%
Cruzain Triton	-10%	/	-1.1%	/	-11%	/	/	/
Cruzain noTriton	-19%	/	-1%	/	-3%	/	/	/
RE007 growth inh	7%	-21%	/	-3%	/	-12%	-26%	-20%
StopGo reporter	26%	-7%	37%[activator]	-15%	/	46%[activator]	?	?

In another format: entries from further up
[34] Cc1cc(=O)oc2cc3c(cc12)OCO3
  NS1 inh: 5% | MARV entry inh: / | LASV entry inh: / | SARS PLpro yeast: 0% | Cruzain Triton: / | Cruzain noTriton: / | RE007 growth inh: -21% | StopGo reporter: -7%
[33] CCCCCCOC(=O)Nc1ccc(S(=O)(=O)Nc2cccc([N+](=O)[O-])c2)cc1
  NS1 inh: 8% | MARV entry inh: -13% | LASV entry inh: -12% | SARS PLpro yeast: 7% | Cruzain Triton: -10% | Cruzain noTriton: -19% | RE007 growth inh: 7% | StopGo reporter: 26%
[35] CCc1ccc(CNC(=O)C2COc3ccccc3C2)cc1 (stereo not drawn)
  NS1 inh: / | MARV entry inh: / | LASV entry inh: 9%[46.1 µM] | SARS PLpro yeast: / | Cruzain Triton: -1.1% | Cruzain noTriton: -1% | RE007 growth inh: / | StopGo reporter: 37%[activator]
[37] CS(=O)(=O)c1nc(-c2cccs2)cc(C(F)(F)F)n1
  NS1 inh: -84% | MARV entry inh: 0% | LASV entry inh: / | SARS PLpro yeast: -34% | Cruzain Triton: -11% | Cruzain noTriton: -3% | RE007 growth inh: / | StopGo reporter: /

(next part)
41	OCCN=C1CCCc2c1[nH]c1ccc(Br)cc21
42	COc1ccc(CCNC(=O)c2cc(-c3cc(C)c(C)cc3O)n[nH]2)cc1OC
43	Oc1ccc(-c2nnc(-c3ccccc3)c(-c3ccccc3)n2)cc1
44	COc1ccc(Cl)cc1-n1c(=S)sc2c(=O)[nH]c(SCC(=O)NCCC(C)C)nc21
45	COc1cccc(-c2nc(NC3CCCC3)c3ccccc3n2)c1O
46	COc1ccc([N+](=O)[O-])cc1NC(=O)C1(c2ccc(OC)c(OC)c2)CCOCC1
47	Cc1ccc(-c2nc(NCCCO)c3ccccc3n2)cc1
48	Cc1ccc(CCNC(=O)c2ccc(Nc3nc4ccccc4n4nnnc34)cc2)cc1
49	COc1ccc2cc3c(N)c(C(=O)N4CCCC4)sc3nc2c1
assay / compound	41	42	43	44	45	46	47	48	49
NS1 inh	-30%	-14%	1%	1%	3%	1%	-15%	/	-8%
MARV entry inh	1%	?	/	5%[46.1 µM]	/	-13%[46.1 µM]	-42%[46.1 µM]	2%[46.1 µM]	?
LASV entry inh	-8%	-4%	/	0%[46.1 µM]	/	7%	?	2%[46.1 µM]	?
SARS PLpro yeast	14%	2%	-25%	12%	-10%	0%	0%	/	-11%
Cruzain Triton	-19%	-1.2%	-11%	/	/	/	/	1.0%	-12%
Cruzain noTriton	-14%	?	17%	/	/	/	/	-6%	?
RE007 growth inh	-26%	-1%	/	-4%	-4%	5%	-15%	/	?
StopGo reporter	-18%	6%	/	-13%	28µM*	-19%	?	13%	-11%

Assay outcomes from PubChem.
